# NPYLR7 ag: agonists of mosquito NPYLR7 receptor, primary screen, cell-based, Aedes aegypti, calcium fluorescence, mosquito biting behavior; Aedes aegypti neuropeptide Y-like receptor 7 (NPYLR7); HEK293T NPYLR7/Galpha15, GCaMP6s calcium fluorescence; activation, % at 10 µM; actives 0.15% (n = 270,000); AID 1259423, 2018; in the data active = activation above about 40%;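 note: 0% = vehicle and 100% = reference agonist at the receptor; some compounds past the cut are filed as inactive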
# NPYLR7 ag max-min: recorded beside NPYLR7 ag, whose call it bears; activation, %; measured here: Max-Min RFU normalised activation; some inactives read as strong as hits;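 span of the calcium signal over five minutes; 0% = vehicle and 100% = native peptide agonist; compound fluorescence can raise it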
# An asterisk follows results filed as active; & = joins results of further samples. A portion of the library, so the mix of outcomes need not match the whole.
# Each structure is followed by: NPYLR7 ag, NPYLR7 ag max-min
- O=C(NC(c1ccccn1)C(F)(F)F)c1cn(Cc2ccccc2Cl)nn1 (stereo not drawn)
  4, 3
- O=C1CC(C(=O)N2CCN(S(=O)(=O)c3cccc(C(F)(F)F)c3)CC2)c2ccccc2N1 (stereo not drawn)
  4, 2
- COc1cc(-c2nc(CN(CCO)Cc3ccccc3)c(C)o2)cc2c1OCO2
  2, 9
- CC(=O)N=c1scc(-c2ccccc2)n1-c1ccc(C)cc1
  -13, -17
- CCc1nc2c(OCc3ccc(C(F)(F)F)cc3)cccn2c1N(C)C(=O)c1cccs1
  7, -4
- COc1ccc(Cc2nc3c4c(ncn3n2)CCC4)cc1
  -3, -4
- O=C(c1ccc(Br)cc1)N1CCC(n2c(=O)[nH]c3ccccc32)CC1
  -1, -3
- CN1CCN(C(=O)c2ccc(-c3cc4nc(NCc5cccnc5)n(C)c(=O)c4s3)cc2)CC1
  2, 2
- O=C1OCC(CO)(CO)N=C1NNc1ccc(Cl)cc1[N+](=O)[O-]
  6, 3
- N#Cc1c(C=Cc2ccc3c(c2)OCO3)cc(-c2ccccc2)n2c1nc1ccccc12
  28, 25
- CCc1nc(CN2CCC(c3nnc4n3CCCCC4)CC2)c(C)[nH]1
  4, 2
- O=C1C=CC(=O)N1c1ccc(Cl)c([N+](=O)[O-])c1
  -5, -13
- CC(=O)O/N=C1\C(=O)N(Cc2cc(Cl)ccc2Cl)c2ccc(Cl)cc21
  -4, -13
- NC(=O)c1csc(N2CCCC3(CC2)CNC(=O)O3)n1 (stereo not drawn)
  10, 9
- CC(NC(=O)CCc1nc2sc3c(c2c(=O)[nH]1)CCCC3)C1CC1 (stereo not drawn)
  4, 0
- CN=c1scc(-c2ccc(CCNC(C)=O)c(F)c2)n1C
  1, 1
- CN1CCN(Cc2nc3c(c(=O)n(C)c(=O)n3C)n2CCc2ccccc2)CC1
  1, 16
- O=C(c1ccc(F)cc1)N1CCC(CN2C(=O)CSC2c2ccccc2Cl)CC1 (stereo not drawn)
  24, 34
- CCC(CNC(=O)c1ccccc1NC(=O)NC(C)C)c1ccccc1 (stereo not drawn)
  -3, -5
- Cc1ccn(CC(=O)N2CCOC(Cc3cccc(C(F)(F)F)c3)C2)n1 (stereo not drawn)
  7, 0
- COc1cc2c(N3CCN(C(=O)Nc4ccc(OC(C)C)cc4)CC3)ncnc2cc1OCCCN1CCCCC1
  -6, 3
- O=C(C1CC1)N1CCCC(OCc2ccc(C(F)(F)F)cc2)C1 (stereo not drawn)
  -9, -2
- Cn1nccc1C(=O)N1C[C@H]2OC(=O)N(CCc3cccc(Cl)c3)[C@H]2C1
  0, -1
- CCOc1cccc2c1Oc1nc(-c3ccccc3)nc(SCC(N)=O)c1C2
  -7, -13
- O=C(COc1ccc(F)cc1Cl)Nc1ccnn1C1CCCC1
  0, -1
- CC(=O)N1CCC(N(C)Cc2csc(C(C)C)n2)CC1
  0, -8
- O=C1NCc2ccc(NCc3nc(Cc4cccc(Cl)c4)no3)cc21
  5, 4
- COc1ccc(-n2c(SCC(=O)Nc3ccc(C(N)=O)cc3)nc3c(c2=O)SCC3)cc1OC
  11, 8
- COc1ccc(CCC(=O)N2CCN(Cc3nnc(C4CC4)o3)CC2)cc1
  4, 3
- C/C=C/COC(=O)C1=C(C)NC(=O)NC1c1ccc(F)cc1 (stereo not drawn)
  -3, -8

# Of the compounds above, 3 contain a thiophene ring, fused or not:
# Each structure is followed by: NPYLR7 ag, NPYLR7 ag max-min
- CCc1nc2c(OCc3ccc(C(F)(F)F)cc3)cccn2c1N(C)C(=O)c1cccs1
  7, -4
- CN1CCN(C(=O)c2ccc(-c3cc4nc(NCc5cccnc5)n(C)c(=O)c4s3)cc2)CC1
  2, 2
- CC(NC(=O)CCc1nc2sc3c(c2c(=O)[nH]1)CCCC3)C1CC1 (stereo not drawn)
  4, 0

# Additional entries follow:
# Each structure is followed by: NPYLR7 ag, NPYLR7 ag max-min
- CCCOCCCNC(=O)c1cc(N2CCN(Cc3ccccc3)CC2)nc2ccccc12
  4, 0
- CC(c1ccncc1)N(C)C(=O)C1CCN(C)C(=O)C1 (stereo not drawn)
  8, 8
- COCCN1CCCC(Cn2cnnc2)C1 (stereo not drawn)
  -1, -2
- CC(=O)NCCn1c(-c2ccccc2)csc1=Nc1cccc(Cl)c1
  -1, -5
- CC(C)CN(CC(N)=O)c1ncc(Br)cn1
  0, 1
- O=C(Cn1nc2c(c1NC(=O)Cc1cccs1)CSC2)NCCc1ccccc1
  6, 18
- Cn1c(/C=C2/CS(=O)(=O)c3ccccc3C2=O)nc2c1c(=O)[nH]c(=O)n2C
  4, 2
- CN(C)c1ccc(C2CC(c3ccc(Cl)cc3)=Nc3ncnn32)cc1 (stereo not drawn)
  22, 12
- O=C(CN1c2cccc3cccc(c23)S1(=O)=O)c1c[nH]c2ccccc12
  4, 12
- CCn1c(C)cn2c3c(=O)n(Cc4cc(C)ccc4C)c(=O)n(C)c3nc12
  8, 3
- CCOC(=O)N1CCN(C(=O)c2ccc(N3CCC(NCCCn4cccn4)CC3)cc2)CC1
  0, -2
- Cc1noc(-c2cccnc2NCCc2cccnc2)n1
  1, 11
- Cc1sc(NC(=O)c2ccccc2)c(CN2CCN(c3ccccc3)CC2)c1C
  -2, -6
- Cc1cccc(NC(=O)N2CCN(CC(=O)N3CC(C)CC(C)C3)CC2)c1 (stereo not drawn)
  1, -2
- CC1(C)Cc2cccc(CN3CCCC(O)(CO)C3)c2O1 (stereo not drawn)
  -1, 6
- O=C(CN1CCN(C(=O)c2cnc3c(cnn3C3CCCC3)c2)CC1)N1CCCCCC1
  8, 8
- O=C(CCn1nnc2ccccc21)N1CCCC(O)(CO)CC1 (stereo not drawn)
  9, 4
- CS(=O)(=O)NCCC1CCCN(Cc2ccc3nonc3c2)C1 (stereo not drawn)
  -1, -2
- COc1ccc(CN(C)Cc2nc(C(c3ccccc3)c3ccccc3)no2)c2cccnc12
  2, 1
- COc1ccc(/C=C2/SC(=S)N(CCCC(=O)N3CCN(C)CC3)C2=O)cc1
  3, -9
- O=C(NNC(=O)c1cccn(Cc2cccc(Cl)c2)c1=O)Nc1ccccc1
  5, 1
- CC(C)(C)NC(=O)CCC1CCCCC1
  0, -1
- CC1(Cc2ccccc2)C(=O)Nc2cc(C(F)(F)F)ccc21 (stereo not drawn)
  0, 6
- CCN1CCN(c2nc3c(c(=O)[nH]c(=O)n3C)n2Cc2cc(C)ccc2C)CC1
  0, 20
- CCCCn1c(SCC(=O)NC(=O)NC)nc2ccccc2c1=O
  8, 9
- O=C(Cc1ccc(S(=O)(=O)CC(F)(F)F)cc1)NCC1CCC1
  5, 5
- COc1cccc(CSc2nnc(CNC(=O)/C=C/c3ccccc3)n2-c2cc(Cl)ccc2C)c1
  5, 17
- CCCN(CC(=O)N(CCc1c[nH]c2ccccc12)Cc1ccccc1OC)C(=O)c1ccco1
  14, 8
- O=C(c1ccc(C(F)(F)F)cc1)N1CCN(C(C(=O)N2CCc3ccccc3C2)C2CCCC2)CC1 (stereo not drawn)
  12, 6
- O=C(NCc1ccc2c(c1)OCO2)c1csc(COc2ccccc2F)n1
  4, 8

# 3 of these compounds, set out differently.
COCCN1CCCC(Cn2cnnc2)C1 (stereo not drawn)
  NPYLR7 ag = -1	NPYLR7 ag max-min = -2
CC(=O)NCCn1c(-c2ccccc2)csc1=Nc1cccc(Cl)c1
  NPYLR7 ag = -1	NPYLR7 ag max-min = -5
CC(C)CN(CC(N)=O)c1ncc(Br)cn1
  NPYLR7 ag = 0	NPYLR7 ag max-min = 1

# (further entries)
# Each structure is followed by: NPYLR7 ag, NPYLR7 ag max-min
- Oc1oc(-c2cccc3ccccc23)nc1C=Nc1cccc(F)c1
  -1, -6
- Cc1sc2nc(C3CC3)nc(N3CCN(C(=O)c4ccc(F)cc4)CC3)c2c1C
  -3, 0
- CN1CCN(c2ncc3c(=O)n(C4CCCC4)ccc3n2)CC1
  4, 3
- COC(=O)c1cc(-c2ccccc2)sc1NC(=O)CCCl
  -4, -10
- CNC(=O)[C@@]1(OCc2ccc(F)cc2)CC(OCc2ccc(C(F)(F)F)cc2)[C@@H]2OC(C)(C)O[C@@H]2C1 (stereo partly drawn)
  25, 22
- COc1cccc(N2CCN(C(=O)c3ccccc3C)C(C)C2=O)c1 (stereo not drawn)
  -9, 8
- COc1ccc(C2(CC(=O)N3CCC(Oc4cccnc4)CC3)CC(=O)N(C3CCCC3)C2=O)cc1 (stereo not drawn)
  3, -2
- O=C(c1ccccc1-n1cccc1)N1CCCC2(CCc3ccccc32)C1 (stereo not drawn)
  7, 6
- O=C(O)CN1C(=O)/C(=C\c2cccc(F)c2)SC1=S
  0, -9
- CC1(C)N=C(N)N=C(N)N1c1ccc(F)cc1F
  -1, 1
- O=C(c1ccc2oc(Cc3ccccc3)nc2c1)N1CCc2ccccc2C1
  10, 9
- COc1cc(/C=C/C(=O)N2CCC=CC2=O)cc(OC)c1OC
  -6&-4, -12&-5
- COC(=O)CCC(NC(=O)Cc1ccc2ccccc2c1)C(=O)OC (stereo not drawn)
  0, -3
- COc1ccc(C(=O)CSc2nnc(C)c3cnn(-c4ccccc4OC)c23)cc1
  -9, -18
- COc1ccc(S(=O)(=O)N(CC(=O)NCCSc2ccccn2)c2ccc(C)cc2)cc1OC
  -12, -20
- O=c1[nH]c(-c2ccc(Cl)cc2)cs1
  -4, -5
- O=C(Cc1cn2ccsc2n1)NC1CCSc2ccc(F)cc21 (stereo not drawn)
  3, 0
- Cc1[nH]n(-c2ccccc2)c(=S)c1C=Nc1ccccc1Br
  1, 0
- CCc1cnc2c(c1N1CCCC1)c(=O)n(C)c(=O)n2C
  3, -3
- CCOc1ccc(OCCSc2nc3ccccc3n2Cc2ccccc2)cc1
  4, 5
- COCC(=O)N(CCN(C)C)Cc1cccc(OS(=O)(=O)c2ccc(NC(C)=O)cc2)c1
  23, 21
- O=C1N(Cc2cccc(Cl)c2)C[C@@H]2C[C@@H](c3ccccc3OC(F)F)N3CCC[C@@]123
  -6, 2
- COCc1cc(CNC(=O)c2c(C)n(C)c3ccc(OC)cc23)[nH]n1
  20, 10
- Cc1ccc(-c2cc(C(=O)N3CCCC3C3CCCC3)n[nH]2)s1 (stereo not drawn)
  6, 4
- CCOC(=O)c1nn(-c2ccccc2C)c(=O)cc1NC
  4, -2
- CCNC(=O)N1CCN(c2cc(Cl)nc(SCC(=O)NCCN3CCOCC3)n2)CC1C (stereo not drawn)
  -3, 3
- Cc1ccc(C(=O)Nc2cc(S(=O)(=O)N(C)C)ccc2F)s1
  4, 3
- Cn1ccnc1C(O)C1CCN(c2nccc(CCC(F)(F)F)n2)CC1 (stereo not drawn)
  3, -1
- O=C(NCC1Cc2cccc(-c3ccccc3C(F)(F)F)c2O1)c1cnc2ccccn2c1=O (stereo not drawn)
  16, 7
- C#CCN(Cc1ccc(C)cc1)C(=O)c1sccc1S(C)(=O)=O
  3, 6
- COc1ccc([C@H](C)NC(=O)c2ccc(-c3cc(-c4cccc(OC)c4)n[nH]3)cc2)cc1
  10, 8
- Cc1ccc(/C=C/C2=NC(=C\c3cccs3)/C(=O)O2)cc1
  0, -6
- Cc1ccc(N2CCN(S(=O)(=O)c3ccc(Br)cc3)CC2)cc1Cl
  -2, -5
- O=C(c1cc(-c2ccco2)nn1-c1ccc(F)cc1)N1CCN(c2cccc(Cl)c2)CC1
  15, 18
- Cn1cc(NC(=O)N2CCc3ccccc32)c2ccccc21
  -4, -7
- CCN(Cc1csc(CC(=O)NC)n1)c1cc(C)cc(C)c1
  5, 4
- CC1=C(C(=O)Nc2cc(C)on2)C(c2c(F)cccc2Cl)NC(=O)N1 (stereo not drawn)
  -2, -6
- CCN1C(=O)N(COC(C)=O)C2C1N(COC(C)=O)C(=O)N2CC (stereo not drawn)
  5, 3
- CC(C)c1nnsc1CNC(=O)c1ccc(C#CC(C)(C)O)o1
  9, 7
- N#CC(C(=O)NC1CCCC1)C(=O)C1CSCN1C(=O)C1CCC1 (stereo not drawn)
  -1, -4
- CCCCC(=O)Nc1c(-c2ccc(F)cc2)nc2cc(C)ccn12
  -7, 0
- CC(=O)Nc1ccc(C(=O)Nc2ccc(S(=O)(=O)N3CCCC3)cc2)s1
  7, 1
- N#Cc1cccnc1NCc1ccc(OC(F)F)cc1
  1, 2
- COCCCn1ccc2c(nnc3c(-c4ccc(Cl)cc4)cnn32)c1=O
  -4, 1
- CCOc1ccc(-n2ccnc(NCc3cccs3)c2=O)cc1
  2, -2
- O=c1c2cc(Cl)ccc2ncn1C1CCN(S(=O)(=O)c2ccc(F)c(F)c2)CC1
  -1, -4
- OCCOCCNC[C@]1(O)CCCN2CCCC[C@@H]21
  10, 1
- COCC(=O)N1CCC(Oc2ccccc2C(=O)NCCc2ccccc2F)CC1
  -4, -11
- Cc1cc(C)c2oc(=O)n(C3CCN(C(=O)C(C)Cl)CC3)c2c1 (stereo not drawn)
  2, -4
- N#Cc1nnc2ccccc2c1N1CCC(OCCN2CCCCC2)C1 (stereo not drawn)
  -11, -12
- CCC1=C(OC(=O)c2ccccc2)C(C)(C)C(c2ccccc2)OC1=O (stereo not drawn)
  3, 31
- Cc1cc(CN2CCN(C(C)C(=O)c3c(C)[nH]c4ccccc34)CC2)no1 (stereo not drawn)
  9, 8
- COCc1nc(-c2ccc(CN3CCN(C(=O)c4ccc5cc[nH]c5c4)CC3)cc2)no1
  2, 5
- CN1CCN(c2ccc(C(F)(F)F)cc2NC(=O)Cc2c[nH]c3ccccc23)CC1
  -1, 1
- Cc1cc(S(=O)(=O)Nc2cccc3[nH]ncc23)c(C)s1
  3, 0
- CC(C)(C)Nc1c(-c2ccc(C(C)(C)C)cc2)nc2ccc(Br)cn12
  -4&5, -4&11
- O=C(NCc1cccnc1N1CCCC(O)C1)c1ccc2c(c1)OCO2 (stereo not drawn)
  -5, -5
- COCCCNC(=O)c1cc(NC(=O)Nc2ccccc2Br)ccc1N1CCC(C)CC1
  19, 26

# Assay outcomes: PubChem BioAssay, Fisher Drug Discovery Resource Center
